Screening results from PubChem.
Six1-Eya2 blk: blocks human Six1 binding to Eya2; AlphaScreen GST-Six1/His-Eya2 binding, biochemical; hits give low values; control for the full effect not named in the record; activity change, % (test concentration not listed); actives 0.56% (n = 360,000); AID 651725; in the data active = activity change below about -65%; inconclusive = about -30% to -65%; inactive = above about -30%; note: % is set by controls: 0 for no effect and ±100 for the full control effect; compound concentration not given in the record
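Compounds are tested against tagged Six1 and Eya2 proteins bridged by glutathione donor and nickel acceptor beads; after a one-hour incubation at 37 °C without light, AlphaScreen emission is recorded.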
gsp antag: gsp mutant antagonism; gsp-mutant cells, cAMP HTRF, 30 min; control for the full effect not named in the record; Potency, µM (doses to about 76.9 µM), for the others: at the highest dose activity change, negative = inhibition, hits mostly inhibitors; actives 0.4% (n = 340,000); active = falling curve of any shape with a large fitted effect; inconclusive = falling curve, mostly with a smaller effect; inactive = flat or rising curve; cell line not stated here;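 note: intracellular cAMP measured with PDE inhibitor Ro 20-1724 present during compound exposure; potency is the fitted concentration of half-maximal effect; % is set by controls: 0 for no effect and ±100 for the full control effect; nearly all actives have a fitted effect of over 65% in size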
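Cells, 2000/well, grown 16–24 h in DMEM 10% FBS with 0.5 mg/ml G418, then compounds plus […] (300 uM addition stock), 30 min at 37C. cAMP read by HTRF (cAMP-d2 and anti-cAMP antibody-K in lysis buffer) after 30 min RT.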
gsp ag: activates gsp, the McCune-Albright syndrome mutation; gsp mutant cells, cAMP HTRF, 30 min; control for the full effect not named in the record; Potency, µM (titrated, usually from 76.9 µM), for the others: at the highest dose activation (cAMP increase), actives largely listed as activators; actives 0.13% (n = 340,000); AID 624287; active = well fitted activation curve with a large enough effect; inconclusive = small, poorly fitted or top-dose-only effect, or another doubt; inactive = no such curve, though single readings can be large or run the other way; cell line not stated here;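 note: phosphodiesterase inhibitor Ro 20-1724 added with compounds to block cAMP breakdown; potency is the fitted concentration of half-maximal effect; nearly all actives have a fitted effect of over 60% in size; about a fifth of the inactives were tested at one dose only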
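Cells in DMEM/10% FBS with G418 were pretreated with compounds in DMSO plus […] (300 uM stock) for 30 min at 37C. cAMP was measured by HTRF (cAMP-d2 plus anti-cAMP antibody-K) after 30 min at room temperature.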
D2 ag: human D2 receptor agonism in beta-arrestin assay | P14416 | DiscoveRx PathHunter D2 beta-arrestin, luminescence, 90 min; 100% = 57 uM dopamine signal | activation, % (test concentration not listed) | actives 0.084% (n = 360,000) | AID 624465; in the data active = activation above about 40%; inconclusive = about 15% to 40%; inactive = below about 15%; note: compound concentration not given in the record; the text of the record calls up to 30% inactive
Target sequence (P14416 whole entry, looked up): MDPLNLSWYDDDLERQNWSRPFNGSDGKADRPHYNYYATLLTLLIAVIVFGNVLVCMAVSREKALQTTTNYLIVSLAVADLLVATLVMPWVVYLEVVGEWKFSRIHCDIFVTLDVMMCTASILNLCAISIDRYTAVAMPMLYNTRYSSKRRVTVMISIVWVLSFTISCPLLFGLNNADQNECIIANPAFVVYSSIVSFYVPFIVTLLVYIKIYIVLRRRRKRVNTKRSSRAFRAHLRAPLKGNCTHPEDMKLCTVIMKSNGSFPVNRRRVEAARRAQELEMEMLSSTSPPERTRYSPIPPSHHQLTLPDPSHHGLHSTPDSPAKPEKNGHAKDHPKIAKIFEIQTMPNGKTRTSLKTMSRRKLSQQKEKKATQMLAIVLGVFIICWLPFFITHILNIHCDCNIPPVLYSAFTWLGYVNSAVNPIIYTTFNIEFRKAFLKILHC
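DiscoveRx PathHunter D2 beta-arrestin cells (2,100/well) attached overnight, then compound-stimulated 90 min at 37 C in HBSS/10 mM HEPES/0.1% Tween-20 buffer; beta-galactosidase complementation read by luminescence after 1 h at ambient temperature. Dopamine 57 uM final (EC100) as control.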
D2 potentiator: human D2 receptor positive allosteric modulation; potentiation, % (test concentration not listed); AID 624464; actives 0.23% (n = 360,000); DiscoveRx D2 beta-arrestin cells, luminescence, 90 min; 100% = 57 uM dopamine signal; active = potentiation of 50% or more; inconclusive = 30% to 50%; inactive = 30% or less;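 note: compound concentration not given in the record; tested on top of an EC20 dose of dopamine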
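D2 cells co-treated with compound plus 50 nM dopamine (EC20) for 90 min at 37 deg C to detect potentiation. Beta-arrestin recruitment was read as enzyme-fragment luminescence after 1 h at ambient temperature. Full response was set by 57 uM dopamine.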
CtBP-E1A inh: inhibitors of CtBP/E1A interaction. AID 651724. activity change, % (no concentration beside the values). actives 0.49% (n = 340,000). AlphaScreen GST-E1A/His-CtBP binding, 1536-well; hits give low values; control for the full effect not named in the record; in the data active means activity change below about -65%; inconclusive means about -30% to -65%; inactive means above about -30%; note: % is set by controls: 0 for no effect and ±100 for the full control effect; compound concentration not given in the record
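Homogeneous bead-based format: GST-tagged E1A captured on glutathione donor beads, His-tagged CtBP on nickel acceptor beads; compounds precede bead addition by 2 h at 37 °C.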
The depositor's hits bear a star; ? = inconclusive; . = not tested or not shown; & = joins results of further samples; [ ] = dose if it differs, or a comment. The list is partial; rates above refer to the full screens.

A first look (2 entries):
Molecule	Six1-Eya2 blk	gsp antag	gsp ag	D2 ag	D2 potentiator	CtBP-E1A inh
Oc1ccc(Cl)cc1	1	-7%	.	-5.9	3	-18
COc1ccc(CNC(=O)CCC(=O)N2C[C@H]3C[C@H](C2)c2cccc(=O)n2C3)cc1OC	0	3%	.	-2.8	-26	1

All compounds of this part, from the start:
Molecule	Six1-Eya2 blk	gsp antag	gsp ag	D2 ag	D2 potentiator	CtBP-E1A inh
Oc1ccc(Cl)cc1	1	-7%	.	-5.9	3	-18
COc1ccc(CNC(=O)CCC(=O)N2C[C@H]3C[C@H](C2)c2cccc(=O)n2C3)cc1OC	0	3%	.	-2.8	-26	1
CC(=O)OC1C2CCCC1C(N1CCCC1)CC2 (centres undefined)	7&2	6%&12%	?	-0.3&-4.7	-28&-10	6&1
C[C@H]1C(=O)O[C@@H]2CCN3CC=C(COC(=O)[C@](C)(O)[C@]1(C)O)[C@H]23	14	4%	.	3.8	4	8
O=C(NCCCN1CC1)Nc1cccc2ccccc12	9	7%	-42%[inhibitor]	-5.0	1	0
C[C@]12CCC3C(CC[C@H]4C[C@@H](O)CC[C@]34C)C1CC[C@@H]2O (some centres undefined)	13	-14%	0%[15.4 µM]	-3.1	-12	-4
Cc1nn(Cc2ccccc2)c(C)c1C(=O)NC1CCCc2ccccc21 (centres undefined)	14	3%	-10%[15.4 µM]	-0.6	-12	-4
COC(=O)C1=C(c2cccc(C#N)c2)C[C@@H]2CC[C@H]1N2C(=O)NCCc1ccccc1	1	-7%	.	-3.8	-9	7
CC(C)N(C(=O)CCl)c1ccccc1	-3	-10%	.	-1.6	-7	12
COc1ccc(CN2CCNCC2)c(OC)c1OC	-13&2	-3%&0%	.	-3.7&6.2	-1&-6	-5&5
CC(C)NS(=O)(=O)c1ccc2c(c1)oc(=O)n2C	4	2%	-44%[inhibitor]	1.2	-5	0
O=C(COc1ccc(Cl)cc1)N(c1ccccc1Cl)C1CN2CCC1CC2 (centres undefined)	8	13%	-22%[15.4 µM]	-7.1	-14	0
CCOC(=O)c1c(/N=C/c2c(O)n(-c3cccc(C)c3)c(=O)[nH]c2=O)sc2c1CCCC2	5	-3%	-2%	-2.3	-8	3
CCCC(C)n1[nH]c(=O)c2c1NC(=O)CSC2c1ccc(OC)c(OC)c1 (centres undefined)	1	-4%	1%	-3.1	-16	3
CC(=NCCC1=CCCCC1)c1c(O)[nH]c(=O)[nH]c1=O	2	2%	2%	-3.4	-5	5
COc1ccccc1CCNCc1cccc(C(F)(F)F)c1	3	10%	-11%	-1.5	-1	8
C[C@H](CO)N1C[C@H](C)[C@@H](CN(C)C(=O)Oc2ccccc2)OCc2cnnn2CCCC1=O	2	.	17%	-8.0	0	-21
O=P(NS(=O)(=O)c1ccc(Br)cc1)(Oc1ccccc1)Oc1ccccc1	0	-4%	-18%	0.5	-6	-8
CCCN1CCc2cc(O)cc3c2[C@H]1Cc1ccc(O)c(O)c1-3	0	-13%	.	241*	129*	-24
COC(=O)C1=C(c2ccc(S(C)(=O)=O)cc2)C[C@@H]2CC[C@H]1N2C(=O)NCCS(C)=O (some centres undefined)	4	-2%	0%	-2.5	-10	4
CC(C)CNC(=O)/C=C/C=C/CCCCCC/C=C/c1ccc2c(c1)OCO2	3	-6%	.	4.4	-4	10
Cc1ccc(C)c(C2(O)CC(C)N(C)CC2C)c1 (centres undefined)	-16	9%	-10%	-2.2	-31	5
O=[N+]([O-])c1ccc(CN2CC=C(c3ccccc3)CC2)cc1	-13	13%	0%[15.4 µM]	-0.9	-21	-10
C=CCN1C(=O)NC(=O)/C(=C/c2ccc(N(C)C)c(Br)c2)C1=O	-4	-10%	-26%	-0.6	-9	1
O=C1CC(N2CC=C(c3ccccc3)CC2)C(=O)N1c1ccc(F)cc1 (centres undefined)	1	13%	5%	-7.3	-7	-1
COCCNC(=O)CN1C2CCC1CC(O)(c1cccnc1)C2 (centres undefined)	-1	11%	-14%[15.4 µM]	5.3	2	9
CC(=Nc1ccc2c(c1)CCC2)c1c(O)n(-c2ccccc2)c(=O)[nH]c1=O	-3	2%	-1%[15.4 µM]	1.1	-8	5
CS(=O)(=O)c1ccc(C(=O)N2CCC(C(=O)O)(c3ccccc3)CC2)cc1	0	7%	7%[15.4 µM]	-1.6	5	7
C=CCn1cc(C=C2C(=O)NC(=O)NC2=O)c2ccccc21	6	12%	4%[15.4 µM]	-4.9	-3	3
O=C(Cn1cc(C=C2C(=O)NC(=O)NC2=O)c2ccccc21)NCC1CCCO1 (centres undefined)	-16	1%	-10%[15.4 µM]	-2.5	-2	-2
CN1C(=O)C(=Cc2ccccc2OCCOc2ccc([N+](=O)[O-])cc2)C(=O)N(C)C1=O	-10	-11%	9%	-2.6	3	-11
C=CCn1c(O)c(C(CC)=NCc2cccnc2)c(=O)[nH]c1=O	1	7%	?	-3.6	4	11
C[n+]1c(-c2ccccc2)sc2ccccc21	3	4%	-14%	-1.0	-11	.
COc1ccc(N2C(=O)/C(=C/c3ccco3)C(=O)NC2=S)cc1	?	-6%	-57%[inhibitor]	-7.4	-10	.
Cc1ccc(C(C)C)c(OCC(=O)N2CCN(CC(=O)N3CCOCC3)CC2)c1	-1	1%	?	4.8	0	.
CCC(C)(C)n1nnnc1CN1CCC(n2c(C)nc3cc(C(F)(F)F)ccc32)CC1	10	1%	0%	-0.2	-7	-9
O=c1[nH]c(=O)n(Cc2ccc(F)cc2)c(O)c1C=NCCCN1CCOCC1	1	10%	2%	-0.7	-12	9
Cc1cc(C)cc(N2C(=O)NC(=O)/C(=C\C=C\c3ccco3)C2=O)c1	-16	15%	-9%	1.0	-2	-7
CCOP(=O)(OCC)C(O)c1ccc(OC)cc1OC (centres undefined)	0	-3%	-1%	1.9	8	4
O=C(Cn1c(=S)[nH]c2ccccc2c1=O)N1CCC2(CC1)OCCO2	0	-9%	41%	-3.5	-7	-2
O=C1CC[C@@]2(O)[C@H]3Cc4ccc(O)c5c4[C@@]2(CCN3CC2CC2)[C@H]1O5	7	3%	.	-0.3	1	0
S=P(Nn1cnnc1)(c1ccccc1)c1ccccc1	2	0%	-73%[inhibitor]	-9.3	-8	.
CC[N+]12CCC(CC1)C(=C(c1ccccc1)c1ccccc1)C2	12	11%	3%	0.1	-14	7
CCOC(=O)c1c(C)n(Cc2ccccc2)c2ccc(OCC(O)CN3C(=O)CNC3=O)cc12 (centres undefined)	-5	19%	-29%	-0.3	-2	-11
CC(C)C/C(=N/O)c1c[nH]c2ccccc12	3	-6%	-5%	0.4	20	3
O=C(NCC1=C(c2ccc3ccccc3c2)C[C@@H]2CC[C@H]1N2Cc1ccco1)c1ccc([N+](=O)[O-])cc1	?	.	-39%[inhibitor]	-6.8	-10	?
O=C1CC(=O)N(Cc2ccccc2)C(=S)N1	3	4%	-34%[inhibitor]	-2.7	-6	0
COC(=O)C1=C(c2cccc(OCc3ccccc3)c2)C[C@@H]2CC[C@H]1N2C	-4	.	29%	-2.3	.	-1
CSCCC(c1nnnn1-c1ccc2c(c1)OCCO2)N1CCC(n2c(=O)[nH]c3ccccc32)CC1 (centres undefined)	-27	.	.	3.7	65*	-17
COc1ccc(/C=C2\C(=O)NC(=O)N(CCC3=CCCCC3)C2=O)c(OC)c1	1	6%	-18%	-4.2	-7	.

The listing continues:
Molecule	Six1-Eya2 blk	gsp antag	gsp ag	D2 ag	D2 potentiator	CtBP-E1A inh
Cn1cccc1C1CCCN1CC(=O)Nc1ccc(C#N)c(Cl)c1 (centres undefined)	-18	-11%	22%	-0.7	-10	-7
COc1ccc(OC(=O)N(C)C[C@H]2OCc3cnnn3CCCC(=O)N([C@H](C)CO)C[C@@H]2C)cc1	7	.	-39%[inhibitor]	-3.3	0	-3
COc1ccc(C2(C#N)CCN(C)CC2)cc1	-1	20%	-7%	-3.3	-17	-1
O=c1[nH]c(=S)n(-c2ccccc2)c(O)c1C=NCc1ccccn1	?	1%	-22%	4.7	-3	?
CCCCOc1ccc(CN2CCN(CCO)CC2)cc1	4	13%	2%	-1.8	-12	2
N#CC(C#N)=Cc1ccc(-c2ccccc2F)o1	-4	8%	?	-2.1	13	0
CN(C)C(=O)Oc1noc2cc(Cl)ccc12	7	-3%	-10%	-2.5	-5	5
COc1cc(OC)c([C@H]2C=C(C)[C@H]3C[C@@H]2C3(C)C)c(OC)c1	10	1%	22%[15.4 µM]	-0.3	-7	4
COc1cc2c(cc1OC)C13CCN4C=C5CCOC6CC(=O)N2C1C6C5CC43 (centres undefined)	-4	20%	-1%	-2.5	-1	8
O=C(O)C(Cc1cnc[nH]1)NS(=O)(=O)c1ccc(Cl)cc1 (centres undefined)	-3	9%	-32%[inhibitor]	-0.1	-12	6
COc1cc2c(cc1O)C(Cc1ccc(O)cc1)NCC2 (centres undefined)	0	10%	?	-2.1	-25	-3
CCOc1ccc(N2C(=O)CC(=O)NC2=O)cc1	9	-4%	-2%[15.4 µM]	1.3	-5	12
COC(=O)C1=Nc2ccccc2/C1=C\c1c(O)n(-c2ccc(OC)cc2)c(=O)[nH]c1=O	-2	-8%	-13%	2.2	-9	-10
CC(c1ccccc1)n1cncc1C(=O)N1CCCC1=O (centres undefined)	4	2%	-11%	-0.1	7	6
CSc1nc(NC(C)C)nc(NC(C)C)n1	13	9%	1%[15.4 µM]	-1.1	-30	-11
CCCCn1c(O)c(C(CC)=NCc2cc(OC)cc(OC)c2)c(=O)[nH]c1=O	-7	?	25%	5.3	-1	-6
Cc1ccc(OP2(=O)Nc3cc(C)c(C)cc3S2)cc1 (centres undefined)	-30	7%	19%	-19	-17	-30
COC(=O)[C@@H]1[C@@H](C(=O)OC)C2(c3ccccc3-c3ccccc32)N(c2ccc(Cl)cc2)N1C#N	-8	1%	?	-5.4	-15	-1
c1ccc2c(N3CCNCC3)nsc2c1	-2	36%	5%[15.4 µM]	-5.9	-15	-3
O=C(c1cn(Cc2ccccc2)c2ccccc12)N1CCCCC1	0	-4%	?	3.3	-8	-6
O=C(COc1ccccc1)N1CCN(C2CC3CCC2C3)CC1 (centres undefined)	3	1%	18%	-2.5	-33	4
C[C@@H]1CN([C@H](C)CO)C(=O)c2c(c3ccccc3n2C)-c2ccccc2CO[C@H]1CN(C)C(=O)Cc1ccccc1	-2	.	?	-7.5	0	-5
O=C1NCN(c2ccccc2)C12CCN(C(c1ccnc3ccccc13)c1nnnn1-c1ccc3c(c1)OCCO3)CC2 (centres undefined)	-18	.	.	?	21	-9
N#Cc1ccccc1Cn1cc(C(=O)c2ccccc2F)c2ccccc21	4	-31%	12%	-2.4	.	0
